From PubChem
UUG fidelity: modulators of yeast start codon fidelity, primary screen, whole organism, S. cerevisiae, single point, plate reader | S. cerevisiae UUG-firefly luciferase reporter, luminescence/redox ratio | activity score, % at 18.7 µM | 350,000 tested, 0.13% active;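 active = replicate mean at a twofold rise or more, about +100% in these data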;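 also: firefly luciferase made from a UUG start codon reports start codon fidelity; reporter light over untreated wells divided by growth signal over untreated wells; some hits fall short of that in this replicate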
Env fusion inh: inhibitors of HIV-1 Env-driven cell-cell fusion, primary screen, HeLa-JRFL effector, CEM21 target cells, luciferase. inhibition, % at 12.3 µM. 360,000 tested, 1.1% active;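 active = mean replicate inhibition score of at least 50 and every replicate individually at or above 50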;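 also: 0% = plate neutral controls and 100% = maraviroc near 300 nM; one replicate is shown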
* = called active by the depositor; & = joins results of further samples; [ ] = dose if it differs, or a comment. This is a subset. The share of hits here may be higher or lower than overall.

Env fusion inh | UUG fidelity | SMILES
46[16.7 µM] | -11 | Cc1ccc(S(=O)(=O)N(C)C[C@H]2Oc3cc(C#CC4CCCC4)ccc3S(=O)(=O)N([C@H](C)CO)C[C@@H]2C)cc1
-8[16.7 µM] | -16 | CCCNC(=O)N[C@@H]1CC[C@H](CC(=O)NC2CCCCC2)O[C@H]1CO
5[16.7 µM] | 25 | C[C@@H]1CN([C@@H](C)CO)C(=O)c2cc(C#CC3CCCCC3)cnc2O[C@H]1CN(C)C(=O)Nc1ccccc1
-1[16.7 µM] | 11 | COc1ccc(CN(C)C[C@@H]2OCCCC[C@@H](C)Oc3ccc(NC(=O)Nc4ccc(OC)cc4)cc3C(=O)N([C@@H](C)CO)C[C@H]2C)cc1
-26[16.7 µM] | -1 | CC(C)NC(=O)N(C)C[C@@H]1Oc2c(NC(=O)C3CCCCC3)cccc2C(=O)N([C@H](C)CO)C[C@H]1C
-78[16.7 µM] | 0 | C[C@@H]1CN([C@@H](C)CO)C(=O)c2cccc(NC(=O)Nc3cccc4ccccc34)c2O[C@H]1CN(C)C(=O)Nc1cccc2ccccc12
6[16.7 µM] | -3 | CNC[C@H]1OCCCC[C@@H](C)Oc2ccc(NC(=O)Nc3ccc(C(F)(F)F)cc3)cc2C(=O)N([C@H](C)CO)C[C@@H]1C
5[16.7 µM] | 7 | C[C@@H]1CN([C@@H](C)CO)C(=O)c2cc(NC(=O)c3ccncc3)ccc2O[C@@H](C)CCCCO[C@H]1CN(C)C(=O)Nc1ccccc1
-10[16.7 µM] | -18 | CO[C@H]1CN(C)C(=O)c2cc(NC(=O)C3CCOCC3)ccc2OC[C@H](C)N(C)C[C@@H]1C
-7[16.7 µM] | 14 | CN1CCN(C(=O)C[C@@H]2CC[C@@H](NC(=O)Nc3ccccc3F)[C@@H](CO)O2)CC1
-23[16.7 µM] | -2 | O=C(O)C[C@@H]1C[C@H]2c3cc(NC(=O)C4CCOCC4)ccc3O[C@H]2[C@H](CO)O1
12&1[16.7 µM] | -7&0 | CN1C(=O)c2cc(NC(=O)c3cccc(F)c3)ccc2OC[C@@H]2O[C@H](CC(=O)NC3CCC3)CC[C@@H]21
18[16.7 µM] | 18 | O=C(NCC[C@H]1CC[C@H](NS(=O)(=O)c2ccccc2)[C@H](CO)O1)c1ccccc1F
21[16.7 µM] | 1 | CNC[C@H]1Oc2cc(C#Cc3cccc(F)c3)ccc2S(=O)(=O)N([C@H](C)CO)C[C@@H]1C
30[16.7 µM] | 0 | CC(C)CC#Cc1cnc2c(c1)C(=O)N([C@@H](C)CO)C[C@@H](C)[C@@H](CN(C)S(=O)(=O)c1cccs1)O2
-7[16.7 µM] | 0 | C[C@H](CO)N1C[C@H](C)[C@@H](CN(C)S(C)(=O)=O)Oc2ncc(C#CC3CC3)cc2C1=O
6[16.7 µM] | 21 | CNC(=O)C[C@@H]1CC[C@@H]2[C@H](COc3ccc(NS(=O)(=O)c4ccc(F)cc4)cc3C(=O)N2C)O1
-17[16.7 µM] | -5 | COc1ccc(NC(=O)N(C)C[C@@H]2Oc3c(NS(=O)(=O)c4ccc(Cl)cc4)cccc3C(=O)N([C@@H](C)CO)C[C@@H]2C)cc1
-1[16.7 µM] | -3 | Cc1noc(C)c1NC(=O)Nc1ccc2c(c1)C(=O)N([C@H](C)CO)C[C@H](C)[C@H](CN(C)S(=O)(=O)c1ccccc1)OCCCC[C@@H](C)O2
2[16.7 µM] | 4 | CCCNC(=O)N[C@@H]1CC[C@@H](CCn2cc(C3CC3)nn2)O[C@H]1CO
-1[16.7 µM] | 12 | Cc1noc(C)c1S(=O)(=O)Nc1ccc2c(c1)C(=O)N([C@H](C)CO)C[C@H](C)[C@H](CN(C)Cc1ccncc1)O2
-8[16.7 µM] | -10 | C[C@@H]1CN([C@@H](C)CO)C(=O)c2cccc(NC(=O)Nc3ccc(F)cc3)c2O[C@@H]1CN(C)C(=O)Nc1cccc2ccccc12
4[16.7 µM] | 14 | CC(C)NC(=O)N(C)C[C@H]1Oc2ccc(NC(=O)Nc3ccc(F)cc3)cc2CC(=O)N([C@H](C)CO)C[C@@H]1C
0[16.7 µM] | 2 | C[C@H](CO)N1C[C@H](C)[C@H](CN(C)C(=O)c2ccc3c(c2)OCO3)Oc2cc(-c3cncnc3)ccc2S1(=O)=O
0[16.7 µM] | 7 | C[C@@H]1CN([C@H](C)CO)C(=O)Cc2cc(NC(=O)CCN3CCOCC3)ccc2O[C@@H]1CN(C)CC1CC1
-1[16.7 µM] | 0 | C[C@@H]1CN([C@@H](C)CO)C(=O)c2cc(NC(=O)Cc3ccccc3)ccc2O[C@H]1CN(C)Cc1ccc(-c2ccccc2)cc1
11[16.7 µM] | 12 | C[C@@H]1CN([C@@H](C)CO)S(=O)(=O)c2ccc(-c3ccc(F)cc3)cc2O[C@H]1CN(C)C(=O)C1CCOCC1
-116[16.7 µM] | 21 | C[C@@H]1CN([C@@H](C)CO)C(=O)c2cccc(NC(=O)Nc3ccc(C(F)(F)F)cc3)c2O[C@H]1CN(C)S(=O)(=O)c1ccc(F)cc1
7[16.7 µM] | -11 | C[C@H]1CN([C@@H](C)CO)C(=O)c2cccc(NC(=O)c3cnccn3)c2O[C@H]1CN(C)CC1CC1
-18[16.7 µM] | -2 | O=C(C[C@H]1C=C[C@H](NC(=O)c2ccccc2)[C@@H](CO)O1)NCc1ccncn1
-10[16.7 µM] | -13 | C[C@@H]1CCCCO[C@H](CN(C)C(=O)Nc2ccccc2)[C@H](C)CN([C@H](C)CO)C(=O)c2cc(NC(=O)Nc3ccc(F)cc3)ccc2O1
-3[16.7 µM] | -3 | CCCC#Cc1ccc2c(c1)O[C@H](CN(C)C)[C@@H](C)CN([C@H](C)CO)S2(=O)=O
34[16.7 µM] | -7 | C[C@@H]1CN([C@H](C)CO)C(=O)c2cc(NC(=O)Nc3ccc(C(F)(F)F)cc3)ccc2O[C@@H]1CN(C)C(=O)Nc1ccc(F)cc1
-99[16.7 µM] | 5 | C[C@H](CO)N1C[C@H](C)[C@@H](CN(C)C(=O)Cc2ccccc2)OCCCC[C@H](C)Oc2ccc(NS(=O)(=O)c3ccccc3)cc2C1=O
-34[16.7 µM] | -6 | C[C@@H]1CN([C@@H](C)CO)C(=O)Cc2cc(NC(=O)Nc3ccc(C(F)(F)F)cc3)ccc2O[C@H]1CN(C)C(=O)NC1CCCCC1
-4[16.7 µM] | 13 | C[C@H]1CN([C@@H](C)CO)C(=O)c2cc(C#Cc3ccccc3F)cnc2O[C@@H]1CN(C)C(=O)c1ccc2c(c1)OCO2
21[16.7 µM] | -8 | COc1ccc(-c2cnc3c(c2)C(=O)N([C@@H](C)CO)C[C@H](C)[C@@H](CN(C)C(=O)Cc2ccccc2)O3)cc1
9[16.7 µM] | -4 | CO[C@@H]1CN(C)C(=O)c2ccc(NS(=O)(=O)c3cccc(C)c3)cc2OC[C@@H](C)N(C(=O)Cc2cccnc2)C[C@H]1C
-6[16.7 µM] | 6 | C[C@@H]1CN([C@@H](C)CO)S(=O)(=O)c2ccc(C#C[C@@H](C)O)cc2O[C@H]1CN(C)C(=O)C1CCC1
-37[16.7 µM] | -8 | COc1ccc(S(=O)(=O)Nc2ccc3c(c2)C(=O)N([C@H](C)CO)C[C@H](C)[C@H](CN(C)C(=O)Nc2ccccc2)OCCCC[C@@H](C)O3)cc1
-19[16.7 µM] | -14 | O=C(C[C@@H]1C=C[C@@H](NC(=O)C2CCOCC2)[C@H](CO)O1)NCc1ccncc1
0[16.7 µM] | 3 | CC(C)NC(=O)N(C)C[C@H]1Oc2c(NC(=O)c3nc4ccccc4s3)cccc2C(=O)N([C@@H](C)CO)C[C@H]1C
-1[16.7 µM] | -8 | COc1cccc(-c2cn(CC[C@@H]3CC[C@H](NC(=O)CC4CC4)[C@H](CO)O3)nn2)c1
3[16.7 µM] | -23 | CN(C)C(=O)C[C@@H]1CC[C@H](NC(=O)NC2CCCC2)[C@H](CO)O1
4[16.7 µM] | -5 | CCCN(C)C[C@@H]1Oc2ncc(-c3cccc(OC)c3)cc2C(=O)N([C@H](C)CO)C[C@@H]1C
9[16.7 µM] | 0 | COc1cccc(NC(=O)N(C)C[C@@H]2Oc3ncc(C#Cc4ccc(F)cc4)cc3C(=O)N([C@@H](C)CO)C[C@@H]2C)c1
3[16.7 µM] | -3 | C[C@@H]1CN([C@@H](C)CO)C(=O)c2cc(NC(=O)C3CC3)ccc2O[C@@H]1CN(C)Cc1ccc(C(=O)Nc2ccccc2N)cc1
-25[16.7 µM] | -6 | Cc1noc(C)c1S(=O)(=O)Nc1cccc2c1O[C@@H](CN(C)Cc1ccccc1)[C@@H](C)CN([C@H](C)CO)C2=O
16[16.7 µM] | -22 | O=C(C[C@H]1CC[C@@H](NC(=O)c2ccncc2)[C@@H](CO)O1)Nc1ccccc1
-9[16.7 µM] | 0 | CCCNC(=O)C[C@@H]1CC[C@@H]2[C@H](COC[C@@H](O)CN2C(=O)c2ccc(F)cc2)O1
-7[16.7 µM] | -5 | O=C(C[C@@H]1C=C[C@@H](NC(=O)Nc2cc(F)ccc2F)[C@@H](CO)O1)NCc1ccncn1
-1[16.7 µM] | -8 | C[C@@H]1CN([C@@H](C)CO)C(=O)c2cc(-c3ccc(C(=O)N(C)C)cc3)cnc2O[C@@H]1CN(C)C(=O)CN(C)C
-31[16.7 µM] | -3 | C[C@@H]1CCCCO[C@@H](CN(C)C(=O)c2ccccc2)[C@H](C)CN([C@@H](C)CO)C(=O)c2cc(NC(=O)Nc3ccc(F)cc3)ccc2O1
3[16.7 µM] | -8 | Cc1ccc(S(=O)(=O)N[C@@H]2C=C[C@@H](CC(=O)N3CCN(c4ccccc4)CC3)O[C@H]2CO)cc1
-2[16.7 µM] | 20 | CNC[C@@H]1OCCCC[C@H](C)Oc2ccc(NC(=O)Nc3ccccc3)cc2C(=O)N([C@@H](C)CO)C[C@@H]1C
-3[16.7 µM] | -2 | CC(C)NC(=O)N[C@H]1CC[C@@H](CCNS(=O)(=O)Cc2ccccc2)O[C@@H]1CO
-30[16.7 µM] | -3 | C[C@@H]1CN([C@H](C)CO)C(=O)Cc2cc(NC(=O)CCN3CCOCC3)ccc2O[C@H]1CN(C)CC1CC1
-7[16.7 µM] | 13 | C[C@@H]1CN([C@@H](C)CO)C(=O)c2cc(NC(=O)c3ccccc3)ccc2O[C@@H](C)CCCCO[C@@H]1CN(C)C(=O)CCC(F)(F)F
2[16.7 µM] | 6 | CC(C)NC(=O)N(C)C[C@H]1Oc2ccc(NC(=O)C3CC3)cc2CC(=O)N([C@H](C)CO)C[C@H]1C
0[16.7 µM] | 3 | CCCN1C[C@@H](C)[C@@H](OC)CN(C)C(=O)c2cc(NC(=O)C3CCOCC3)ccc2OC[C@H]1C

Other entries:
Env fusion inh | UUG fidelity | SMILES
-30[16.7 µM] | -18 | C[C@@H]1CCCCO[C@@H](CN(C)Cc2ccncc2)[C@H](C)CN([C@H](C)CO)C(=O)c2cc(NC(=O)Cc3ccccc3)ccc2O1
-3[16.7 µM] | 1 | CCCC(O)C#Cc1cnc2c(c1)C(=O)N([C@H](C)CO)C[C@H](C)[C@H](CN(C)Cc1ccncc1)O2 (stereo partly drawn)
-4[16.7 µM] | 30 | COc1ccc(CN(C)C[C@H]2OCCCC[C@H](C)Oc3ccc(NC(=O)Nc4ccc5c(c4)OCO5)cc3C(=O)N([C@H](C)CO)C[C@H]2C)cc1
-82[16.7 µM] | 7 | C[C@H]1CCCCO[C@@H](CN(C)C(=O)C2CCCCC2)[C@@H](C)CN([C@@H](C)CO)C(=O)c2cc(NC(=O)c3ccccc3)ccc2O1
9[16.7 µM] | 11 | Cc1noc(C)c1S(=O)(=O)Nc1ccc2c(c1)C(=O)N([C@@H](C)CO)C[C@@H](C)[C@H](CN(C)C(=O)C1CCCCC1)OCCCC[C@H](C)O2
0[16.7 µM] | 7 | C[C@@H]1CCCCO[C@H](CN(C)Cc2ccc(C(=O)O)cc2)[C@H](C)CN([C@H](C)CO)C(=O)c2cc(NC(=O)Nc3ccc4c(c3)OCO4)ccc2O1
1[16.7 µM] | 6 | CNC[C@H]1Oc2ccc(NC(=O)CCC(F)(F)F)cc2CC(=O)N([C@H](C)CO)C[C@@H]1C
-5[16.7 µM] | 3 | C[C@H]1CN([C@@H](C)CO)S(=O)(=O)c2ccc(C#Cc3ccc(F)cc3)cc2O[C@H]1CN(C)C(=O)c1ccccn1
4[16.7 µM] | -11 | Cc1noc(C)c1NC(=O)Nc1ccc2c(c1)CC(=O)N([C@@H](C)CO)C[C@H](C)[C@@H](CN(C)S(=O)(=O)c1ccc(F)cc1)O2
